Assay outcomes: PubChem, several laboratories
Autofluor counter: flagged as autofluorescent in microsphere protease counterscreen | compound autofluorescence counterscreen, microsphere flow cytometry; hits give high values | fluorescence intensity (concentration not given with the values) | 360,000 compounds, 3.1% hits;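 active = at least 3 SD above the mean of all compounds, about 16000 in these data; inconclusive = too few beads counted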;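 also: 100 nL of 1 mM stock went into each well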
BJeLR lethal: kills HRASV12-expressing BJeLR cells. BJeLR (HRASV12) viability, CellTiter-Glo ATP luminescence, 48 h; reference of the scale not given here. inhibition, % (concentration not given with the values). 300,000 compounds, 0.17% hits;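 active = replicate mean above 50%; inconclusive = above 50% but judged a plate artefact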;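 also: 50 nL library stock added to about 25 µL; numbers are from one replicate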
ugtP null kill: kills S. aureus RN4220 lacking UgtP. S. aureus RN4220 ugtP deletion, OD600 growth, 16 h; some inactives read as strong as hits. growth inhibition, % (test concentration not listed). 330,000 compounds, 0.54% hits. AID 1259309;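 active = z-score under -3 and OD600 up to 0.15 on both plates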;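 also: plate controls were untreated wells for no effect and antibiotic for full effect; wells of about 80 µL received 100 nL stock; the first replicate is given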
Mtb hypoxia rep: Mtb hypoxia fluorescent reporter inhibition; fluorescence inhibition, % (no concentration beside the values); AID 1159583; 300,000 compounds, 0.1% hits; M. tuberculosis hypoxia-regulated fluorescent reporter, fluorescence;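 active = 35 to 45% if threefold the growth effect, above 45% if 1.5-fold the growth effect; inactive = the rest, general growth blockers included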;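 also: wells of about 50 µL received 100 nL stock; 0% = vehicle wells and 100% = reference inhibitor wells; whole bacteria with a GFP reporter of the hypoxia response; strong numbers were not always called active; many hits fall short of the cut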
Sa RN4220 lethal: kills Staphylococcus aureus RN4220; S. aureus RN4220 growth, OD600, 16 h; inhibition, % (concentration not given with the values); 330,000 compounds, 0.33% hits; AID 1259311;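 active = z-score of -3 or lower and OD600 up to 0.18 on both plates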;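 also: plate controls were untreated cells for no effect and reference antibiotic for full effect; stock transfer was 100 nL into about 80 µL; one replicate is shown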
PrP UTR inh: suppresses PrP 5' UTR mRNA reporter expression. cell-based PrP 5' UTR mRNA reporter, plate reader. inhibition, % (test concentration not listed). 340,000 compounds, 0.35% hits. AID 488862;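 active = every replicate at 50% or more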;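 also: 0 = median of the neutral control wells; tested in H4 reporter cells; numbers are from one replicate; inactives centre near -14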
Mtb hypoxia rep growth: second read-out of Mtb hypoxia rep, no call of its own (marks repeat the call); growth inhibition, %; measured here: M. tuberculosis growth (absorbance);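 0% = vehicle and 100% = reference antibiotic; read after six days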
* hit, by the source's call; ? = inconclusive; . = not tested or not shown. This is a random part of the collection (roughly 4% active in at least one column).

SMILES	Autofluor counter	BJeLR lethal	ugtP null kill	Mtb hypoxia rep	Mtb hypoxia rep growth	Sa RN4220 lethal	PrP UTR inh
CCN1C[C@]2(COC(=O)c3ccccc3N)CC[C@H](OC)C34[C@@H]5C[C@H]6[C@H](OC)[C@@H]5[C@](O)(C[C@@H]6OC)[C@@](O)([C@H]13)[C@@H](OC)[C@@H]42	4172	8.3	0.9	3.8	7.1	0.8	7.5
O=C(N/N=C/c1ccccn1)c1cccs1	3405	-5.5	.	.	.	.	-18.5
CCCn1c(N)c(N(CCOC)C(=O)CCC2CCCCC2)c(=O)[nH]c1=O	9527	.	-3.4	-14.2	-2.3	-1.2	-0.1
CCOc1ccc(OCC)c(NC(=O)C2CCN(S(=O)(=O)c3cccnc3)CC2)c1	10688	1.2	-0.1	9.7	13.1	2.6	-19.3
CC1=NN(c2ccccc2)C(=O)C1=Cc1ccc(Oc2ccc([N+](=O)[O-])cc2[N+](=O)[O-])cc1	.	.	-10.3	0.3	7.4	10.1	.
COC(C(=O)N/N=C/c1ccc(OCC(=O)N2CCOCC2)cc1)c1ccccc1 (stereo not drawn)	4946	-0.7	.	.	.	.	-12.9
O=C(N/N=C/c1cc([N+](=O)[O-])ccc1O)C1CC1	4399	1.5	.	.	.	.	-8.6
Cn1c(CNC(=O)C2CCCCC2)cc2cc(Cl)ccc21	3777	4.0	5.7	12.6	9.4	-2.0	-24.4
O=C(O)c1c(F)c(F)c(F)c(F)c1-c1ccc(Cl)cc1	11101	-2.0	1.6	20.0	9.3	3.4	-8.1
O=C(CSC1=NCCS1)Nc1cccc(F)c1	4108	-3.6	5.0	6.7	-1.5	-0.2	-10.2
Cc1ccc(CNC(=O)[C@H](C)NC(=O)C2CCN(C(=O)[C@@H](N)CC(C)C)CC2)cc1	5259	1.9	4.9	.	.	0.9	-32.1
C/C=C/C(=O)Nc1nnc(C(C)C)s1	2465	-17.6	6.7	.	.	-2.8	-22.3
N/C(=N\OC(=O)c1cccc(Br)c1)c1ccc([N+](=O)[O-])cc1	3664	-10.0	.	.	.	.	-22.8
O=C(OCC(=O)N1CCCc2ccccc21)C1CCN(S(=O)(=O)c2cccs2)CC1	2995	4.8	3.2	.	.	-3.3	-18.9
CC(C)CN(C(=O)c1cc(Cl)nc2ccccc12)C1CCS(=O)(=O)C1 (stereo not drawn)	.	.	17.0	-3.0	-3.0	5.9	-4.0
O=S(=O)(c1ccc(N2CC=C(c3ccccc3)CC2)nc1)N1CCCC1	24332*	-1.0	7.8	3.3	10.0	1.3	-1.9
O=Nc1ccc(NOC(=O)c2ccccc2)cc1	2642	-2.6	8.8	5.3	4.7	-3.3	-15.8
Cc1nc2ccc(Cl)cc2c(-c2ccccc2Cl)c1CC(=O)O	6966	8.8	9.7	10.1	5.6	18.8	12.6
O=C(Cn1[nH]c(=O)c2ccccc2c1=O)Nc1cccc(S(=O)(=O)N2CCCCCC2)c1	3223	3.4	6.2	-9.1	-0.2	9.6	-32.0
COc1cccc(-c2cc(C(=O)Nc3cc(C)nn3-c3ccccc3)no2)c1	9424	-6.7	-3.4	15.3	6.5	0.4	-31.3
COc1ccc(CCNC(=O)C(CC(C)C)NC(N)=O)cc1 (stereo not drawn)	3370	-3.6	6.9	7.3	4.6	1.5	-26.8
Cc1ccc(C(=O)OCC(=O)NNC(=O)c2ccccc2)c(O)c1	6619	6.2	.	.	.	.	-11.0
COc1ccc(C(=O)N2CCCN(C)CC2)cc1S(=O)(=O)N1CCCc2ccccc21	9269	-6.1	1.9	0.6	1.5	3.3	-21.0
Cc1sc2nc(SCC(=O)C(C)(C)C)n(Cc3ccco3)c(=O)c2c1C	22551*	8.2	1.5	-7.0	-3.1	-0.3	-17.3
O=C(N/N=C/c1cccc2ccccc12)c1cccc(F)c1	5812	4.4	.	.	.	.	-30.7
The listing continues:
SMILES	Autofluor counter	BJeLR lethal	ugtP null kill	Mtb hypoxia rep	Mtb hypoxia rep growth	Sa RN4220 lethal	PrP UTR inh
CCn1ncc(/C=C/C(=O)Nc2c(C)nn(Cc3ccc(Cl)cc3Cl)c2C)c1C	10595	4.1	2.8	-8.3	-5.3	3.4	-42.9
CCCc1cc(=O)oc2cc(OCC(=O)NC3CC(C)(C)NC(C)(C)C3)ccc12	4131	-3.1	6.6	2.1	-7.4	-0.3	-9.0
COc1ccc(N=C(C)C2=C(O)COC2=O)cc1	4626	-3.9	-3.5	.	.	2.5	-14.7
COC(=O)CCC(=O)Nc1ccc(Cl)c(Cl)c1	9547	-5.2	8.4	4.1	7.0	1.3	-6.4
O=C(C1=NN[C@@H]2C(=O)N(c3cccc(C(F)(F)F)c3)C(=O)[C@H]12)c1ccc2ccccc2n1	2689	-6.0	-7.4	-1.9	9.4	2.3	-12.4
CCC1=NN(C(=O)c2cccc(Br)c2)C(O)(c2ccc(Br)cc2)C1 (stereo not drawn)	2547	21.2	80.6	-4.3	11.0	60.8	-10.7
O=C(CNC(=O)c1ccccn1)N/N=C/c1ccc2c(c1)OCO2	2358	10.5	.	.	.	.	-17.5
COc1cccc(NC(=O)CN2CCCCCC2)c1	3316	-10.3	6.1	-6.5	1.0	5.6	2.2
Cc1ccc(NC(=O)/C(=C\c2ccccc2)NC(=O)c2ccco2)cc1	5544	0.9	-0.1	18.6	3.5	3.7	-1.8
O=C(NCCc1ccccc1)C(NS(=O)(=O)c1cccc2nsnc12)c1ccccc1 (stereo not drawn)	1956	1.0	12.6	9.1	3.8	16.5	-76.1
COc1ccc(C2SCCN2C(=S)Nc2cccc(C(F)(F)F)c2)cc1 (stereo not drawn)	10160	4.7	-20.1	4.6	6.1	-0.7	-1.4
CCOC(=O)N1CCN(C(=O)/C(=C/c2ccc(Cl)cc2)NC(=O)c2ccccc2)CC1	3334	-1.2	2.6	-2.0	8.0	10.0	-0.9
COc1ccc(-c2csc(C3=C(O)CN(Cc4ccc(Cl)cc4)C3=N)n2)cc1OC	10842	-10.6	-7.4	4.4	13.0	-3.1	7.8
CN(CCc1ccccc1)C(=O)c1ccc(NC(=O)Cc2cccc(NC(=O)C3CCN(C(=O)C4CCCC4)CC3)c2)cc1	2931	.	4.7	-1.8	0.6	5.8	-9.0
Cc1nc(SCC(=O)c2ccc(Cl)s2)c2oc3ccccc3c2n1	9532	0.8	-11.0	3.7	11.4	31.1	-47.1
CCOC(=O)NC1(NC2CCCCC2)Oc2ccccc2O1	4411	5.1	0.7	5.3	8.4	2.9	-16.7
Cc1nnc(-c2cccc(Br)c2)c2cn(-c3ccccc3)nc12	32979*	-4.9	-18.6	19.1	3.9	4.9	-14.2
Cc1nc2ccccc2c(=O)n1N=Cc1ccc(OC(F)F)cc1	.	.	11.9	17.4	4.7	-1.1	.
CN1CCN(Cc2cccc3ncccc23)CC1CCO (stereo not drawn)	3099	1.0	5.4	9.9	-0.5	0.9	-1.9
C=CCN1CN=C(NS(=O)(=O)c2ccc(NC(C)=O)cc2)NC1	2297	-2.0	13.5	8.1	8.6	2.7	-4.0
O=C1/C(=C/c2cccc(Cl)c2)CSc2sccc21	?	-1.7	8.0	-0.7	9.7	-6.5	19.3
Cc1ccc(S(=O)(=O)N2CCC3(CC2)CC(=O)c2ccccc2O3)cc1	4904	-4.9	6.7	4.3	8.8	1.9	-21.6
CC1CCN(C2=NC(=O)/C(=C/c3ccc(O)cc3)S2)CC1	3978	1.6	10.8	16.8	15.2	6.8	-31.3
CCC1=C(OC(=O)c2ccccc2)C(C)(C)C(c2ccccc2)OC1=O (stereo not drawn)	2870	2.0	39.1	.	.	-7.7	4.2
COc1ccc(C(C)=O)cc1CS(=O)(=O)CC(=O)NCCc1c[nH]c2ccccc12	4289	.	-4.4	-4.9	-0.9	1.0	-7.3

Retrieved by structure from above:
SMILES	Autofluor counter	BJeLR lethal	ugtP null kill	Mtb hypoxia rep	Mtb hypoxia rep growth	Sa RN4220 lethal	PrP UTR inh
CC1CCN(C2=NC(=O)/C(=C/c3ccc(O)cc3)S2)CC1	3978	1.6	10.8	16.8	15.2	6.8	-31.3
COc1ccc(-c2csc(C3=C(O)CN(Cc4ccc(Cl)cc4)C3=N)n2)cc1OC	10842	-10.6	-7.4	4.4	13.0	-3.1	7.8

The listing picks up, repeating the three entries before the break.
SMILES	Autofluor counter	BJeLR lethal	ugtP null kill	Mtb hypoxia rep	Mtb hypoxia rep growth	Sa RN4220 lethal	PrP UTR inh
CC1CCN(C2=NC(=O)/C(=C/c3ccc(O)cc3)S2)CC1	3978	1.6	10.8	16.8	15.2	6.8	-31.3
CCC1=C(OC(=O)c2ccccc2)C(C)(C)C(c2ccccc2)OC1=O (stereo not drawn)	2870	2.0	39.1	.	.	-7.7	4.2
COc1ccc(C(C)=O)cc1CS(=O)(=O)CC(=O)NCCc1c[nH]c2ccccc12	4289	.	-4.4	-4.9	-0.9	1.0	-7.3
CC(=O)c1cccc(-n2nnnc2SCC(=O)NNC(=O)C2CCCCC2)c1	4534	-10.0	6.8	3.0	-2.0	0.3	-6.4
Cn1c(C(=O)O)c(CC(=O)Nc2ccc3c(c2)OCCO3)c2ccccc21	2975	3.2	-1.0	9.1	12.3	4.4	9.9
Cc1cc(C(=O)NC(c2ccccc2)[C@@]2(C)CC2C(C)C(=O)Nc2ccc3ccccc3c2)n(C)n1 (stereo partly drawn)	.	.	-6.3	-11.6	-5.4	-7.0	.
COc1ccc(NC(=O)CN(C)C(=O)CCc2nc3cc(S(=O)(=O)N4CCOCC4)ccc3n2C)cc1	?	6.9	5.6	9.9	6.9	2.9	-15.7
C=CCn1c(-c2ccc(OC)cc2)csc1=Nc1c(C)n(C)n(-c2ccccc2)c1=O	2361	3.4	0.5	.	.	1.9	-24.6
CCc1cc(=O)oc2cc(C)cc(OC(=O)c3ccco3)c12	4303	-2.6	-13.5	7.6	12.3	4.1	-20.5
Cc1ccc(Cl)cc1NC(=O)CC(O)(C(F)(F)F)C(F)(F)F	4169	6.4	-1.8	15.9	12.2	18.0	-3.9
CC(=O)c1ccc(N2CCN(C(C)C(=O)Nc3ccc4c(c3)OCCO4)CC2)cc1 (stereo not drawn)	3261	.	0.7	5.7	5.8	0.6	-9.1
O=c1[nH]c(-c2ccc(Cl)cc2)cs1	2019	1.7	0.6	-0.5	-5.7	5.1	-17.9
COc1ccc(/C=N/NC(=O)Nc2cccc3nsnc23)cc1OC	2056	-9.6	.	.	.	.	5.9
Cc1ccc(C(=O)Nc2ccncc2)c(C)c1	2925	11.9	6.5	10.4	4.7	7.0	-1.1
COc1ccc(CNC(=O)C2CCCN2C(=O)NC2CCCCC2)cc1 (stereo not drawn)	9737	3.1	-4.8	0.9	6.4	-0.7	-18.1
COc1ccccc1C(=O)N/C(=C/c1ccc(Br)cc1)C(=O)NCCO	6877	0.5	-2.7	7.1	2.7	3.6	-16.0
CCCn1c(CCc2ccccc2)n[nH]c1=S	3091	-3.8	2.9	0.9	-2.2	-0.5	-4.8
CC(=O)NCCc1nc2ccccc2n1Cc1cc(C)ccc1C	4027	-4.9	7.7	-9.3	5.2	2.6	-26.3
COc1ccc(CN(C)C(=O)C2CC(=O)N(c3ccc4c(c3)OCCO4)C2)c(OC)c1 (stereo not drawn)	3130	.	1.3	8.1	-3.5	0.4	-1.1
Cc1cccc2cc(CN(CC3CCCO3)C(=O)c3ccco3)c(=O)[nH]c12 (stereo not drawn)	4337	2.3	7.5	.	.	0.3	1.3
Cc1nc2c(C(=O)NCc3cccs3)cnn2c(C)c1Cc1ccccc1	.	19.5	-10.4	3.9	2.4	3.0	.
COC(=O)COc1ccc(S(=O)(=O)NCCC2=CCCCC2)cc1C	22566*	12.1	7.7	0.9	-2.0	2.1	-18.3
Cn1c(SCC(=O)NC2CCCCC2)nnc1-c1ccccc1F	5778	0.4	1.7	9.2	0.2	-0.4	-4.6
CCc1ccc(N(C(=O)c2csnn2)C(C(=O)NC(C)(C)CC)c2ccccn2)cc1 (stereo not drawn)	4377	13.0	4.2	9.8	12.5	-0.1	-33.1
NC(=S)NN=Cc1ccccc1OCCSc1ccc(Cl)cc1	.	.	24.7	8.9	6.1	36.1	.
COC(C/C=C/[C@H](O)COCc1ccccc1)OC	3797	1.6	.	.	.	.	7.0
COc1ccccc1CC(=O)N1CCCC(CCC(=O)NCc2ccccc2F)C1 (stereo not drawn)	4324	-3.4	6.2	-5.0	-5.4	2.9	-7.6
Cc1ccccc1Cn1cc(CCC(=O)N2CCOCC2)c2ccccc21	3038	-1.9	4.2	5.7	1.8	5.8	-12.0
Cc1ccccc1NC(=O)Cc1cccs1	2998	-6.9	4.0	-3.0	8.5	1.0	-9.4
